High-throughput results from PubChem.
HIV TAR-Tat: TAR RNA-Tat peptide displacers, HIV-1, primary screen, biochemical, FRET, FAM/TAMRA-labeled Tat | z-score (no concentration beside the values) | 0.6% of 100,000 active | HIV-1 TAR RNA, Tat peptide displacement FRET; active compounds read high;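 further: score is relative to mean and SD of negative controls; some compounds called inactive have numbers as strong as hits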
CDC25B CDK2 inh: primary biochemical HTRF screen for blockers of M-phase inducer phosphatase 2 binding to CDK2/cyclin A | P30305+P24941 | HTRF CDC25B-CDK2/CyclinA binding, anti-His/anti-Flag; active compounds read high | z-score (test concentration not listed) | 0.72% of 94,000 active;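 further: score is relative to mean and SD of negative controls; strong numbers were not always called active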
Numbers without * were called inactive.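 How the source made its calls: active means z-score from 3 up in half or more of its runs; inactive means the rest.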

A first look (four entries):
For CCOC(=O)CS(=O)c1nc2c(c(C(F)(F)F)n1)CCc1ccccc1-2 (stereo not drawn) the results were HIV TAR-Tat -0.99 and CDC25B CDK2 inh 1.
`COc1ccc(-c2nc(-c3cccs3)c(-c3cccs3)[nH]2)cc1O` gave HIV TAR-Tat 1.2 and CDC25B CDK2 inh 18*.
For CCOc1ccc2ncc(S(=O)(=O)c3ccc(OC)cc3)c(N3CCCC(C)C3)c2c1 (stereo not drawn) the results were HIV TAR-Tat 0.85 and CDC25B CDK2 inh -0.53.
O=C(O)c1cccc(CN2C(=O)SC(Nc3ccccc3)C2=O)c1 (stereo not drawn) was read as CDC25B CDK2 inh -0.53.

The listing, from the first entry:
For CCOC(=O)CS(=O)c1nc2c(c(C(F)(F)F)n1)CCc1ccccc1-2 (stereo not drawn) the results were HIV TAR-Tat -0.99 and CDC25B CDK2 inh 1.
`COc1ccc(-c2nc(-c3cccs3)c(-c3cccs3)[nH]2)cc1O` gave HIV TAR-Tat 1.2 and CDC25B CDK2 inh 18*.
For CCOc1ccc2ncc(S(=O)(=O)c3ccc(OC)cc3)c(N3CCCC(C)C3)c2c1 (stereo not drawn) the results were HIV TAR-Tat 0.85 and CDC25B CDK2 inh -0.53.
O=C(O)c1cccc(CN2C(=O)SC(Nc3ccccc3)C2=O)c1 (stereo not drawn) was read as CDC25B CDK2 inh -0.53.
For Cc1cc(S(=O)(=O)N2CCC(Sc3ncccn3)CC2)ccc1-n1cnnn1 the results were HIV TAR-Tat -0.15 and CDC25B CDK2 inh -0.72.
Screening CC(=O)N1N=C(c2ccc([N+](=O)[O-])o2)OC1c1cccc(Br)c1 (stereo not drawn) returned HIV TAR-Tat -0.4.
CCCCc1cc(=O)oc2c(C)c(OCC(=O)OC(C)C)ccc12 was read as CDC25B CDK2 inh 0.31.
Screening COc1cc(C2Nc3ccc(Cl)cc3C(c3ccccc3)O2)cc(OC)c1OC (stereo not drawn) returned CDC25B CDK2 inh -0.82.
O=C1C(=O)N(Cc2cccnc2)C(c2ccccc2)/C1=C(\O)c1ccc(F)cc1 (stereo not drawn) was read as HIV TAR-Tat 0.44 and CDC25B CDK2 inh -0.78.
Screening CC(C)NC(=O)NC1CCCCNC1=O (stereo not drawn) returned CDC25B CDK2 inh -1.9.
For CCOCCCNC(=O)N1c2ccccc2NC2=C(C(=O)CCC2)C1c1cccs1 (stereo not drawn) the results were HIV TAR-Tat 3.7.
COc1c(C(=O)Nc2nnc(C3CC3)s2)csc1Cl was read as CDC25B CDK2 inh -1.1.
`CN1C(=O)C(C)(C)c2cc(S(=O)(=O)NCc3ccccn3)ccc21` gave HIV TAR-Tat 0.63.
For Cc1cc(C)cc(NC(=O)c2cc3c(=O)n4ccccc4nc3n2C)c1 the results were HIV TAR-Tat 1.2.
Screening COc1ccccc1/C=C/c1nc(C#N)c(N2CCNCC2)o1 returned HIV TAR-Tat -0.52 and CDC25B CDK2 inh 9.6*.

In the list so far, these have a thiophene ring, fused or not.
`COc1ccc(-c2nc(-c3cccs3)c(-c3cccs3)[nH]2)cc1O` gave HIV TAR-Tat 1.2 and CDC25B CDK2 inh 18*.
For CCOCCCNC(=O)N1c2ccccc2NC2=C(C(=O)CCC2)C1c1cccs1 (stereo not drawn) the results were HIV TAR-Tat 3.7.
COc1c(C(=O)Nc2nnc(C3CC3)s2)csc1Cl was read as CDC25B CDK2 inh -1.1.

Continued.
`COCCNC(=O)C1(c2cccs2)CCOCC1` gave HIV TAR-Tat 1.7.
Cc1ccc(Cl)cc1N1CC(O)=C(c2nc3ccccc3[nH]2)C1=N was read as HIV TAR-Tat 2.5 and CDC25B CDK2 inh -0.22.
COc1ccc(N2C(=O)C3CCCN3C2c2cccc(Br)c2)cc1 (stereo not drawn) was read as HIV TAR-Tat -0.19 and CDC25B CDK2 inh -3.1.
For COc1ccc2[nH]c(C)c(CCN3C(=O)OC(C)(C)C3(C)O)c2c1 (stereo not drawn) the results were CDC25B CDK2 inh -0.58.
Screening Cc1noc(-c2cccnc2NCc2ccco2)n1 returned HIV TAR-Tat 0.62 and CDC25B CDK2 inh -1.2.
CC1CCCN(c2nn3c(=O)c(C(=O)N4CCOCC4)cnc3s2)C1 (stereo not drawn) was read as HIV TAR-Tat -0.18.
`CCc1nc2nc(C)cc(N3CCN(c4ccccc4OC)CC3)n2n1` gave HIV TAR-Tat -0.78 and CDC25B CDK2 inh -1.9.
`Cc1cc(C)n(C(=O)c2cc3ccccc3c(=O)o2)n1` gave CDC25B CDK2 inh -2.2.
For O=C(CS(=O)(=O)c1ccc2c(c1)S(=O)(=O)N=CN2)N1CCN(c2ccc(F)cc2)CC1 the results were HIV TAR-Tat 0.71.
`CCC1CCCCN1CCCNC(=O)Cn1cc2c(n1)-c1c(oc(C(=O)N3CCCC3)c1C)CC2` (stereo not drawn) gave HIV TAR-Tat -6.8.
For CC(=O)Nc1nnc(SCc2cc(=O)c3cccc(Cl)c3[nH]2)s1 the results were HIV TAR-Tat 1.4.
`O=c1c(N2CCN(c3ccc(F)cc3)CC2)csc2ccc(Cl)cc12` gave HIV TAR-Tat -2.5.
Cc1nn(-c2nncc(-c3ccc(Cl)cc3)n2)c2c1C(c1cc(F)cc(F)c1)CC(=O)N2 (stereo not drawn) was read as HIV TAR-Tat 2.1 and CDC25B CDK2 inh 1.7.
For O=C(CN1CCN(c2ccc(C(F)(F)F)cn2)CC1)NCc1ccc2c(c1)OCO2 the results were CDC25B CDK2 inh -0.2.
Screening CCN(CC)c1ccc2nnc(CCC(=O)Nc3ccc(F)cc3)n2n1 returned HIV TAR-Tat 1.4.
`CCNC(=O)C1CCCN(c2nn3c(=O)cc(C)nc3s2)C1` (stereo not drawn) gave HIV TAR-Tat 2.2 and CDC25B CDK2 inh -0.64.
Cc1cc2oc(C(=O)N(Cc3ccccc3Cl)C3CCS(=O)(=O)C3)cc(=O)c2cc1C (stereo not drawn) was read as HIV TAR-Tat -0.48 and CDC25B CDK2 inh -0.4.
`CC(C)(C)c1cc(Br)ccc1OCC(=O)Nc1ncn[nH]1` gave HIV TAR-Tat 0.96 and CDC25B CDK2 inh -1.3.
CCOC(=O)C1=C(C)NC(=O)NC1c1ccc(CN2C(=O)c3ccccc3C2=O)o1 (stereo not drawn) was read as CDC25B CDK2 inh -1.4.
For O=C(c1nn2c(C(F)(F)F)cc(-c3cccs3)nc2c1Cl)N1CCCCC1 the results were HIV TAR-Tat 1.1.
For COc1ccc(-c2cc(-c3ccc(Br)cc3)n3ncnc3n2)cc1OC the results were HIV TAR-Tat -6.9 and CDC25B CDK2 inh 2.3.
Screening O=C(c1ccc(CS(=O)(=O)c2ccc(Br)cc2)o1)N1CCN(c2ncccn2)CC1 returned HIV TAR-Tat 0.02.
CC(C)CN1C(=O)c2ccccc2C(C(=O)N2CCCC2)C1c1cccs1 (stereo not drawn) was read as HIV TAR-Tat 2.6.
Screening O=C(Nc1c2c(nn1-c1cccc(Cl)c1)CS(=O)(=O)C2)c1cccs1 returned CDC25B CDK2 inh -1.7.
Screening CCOC(=O)N1CCN(c2c(Nc3ccc4c(c3)OCCO4)c(=O)c2=O)CC1 returned HIV TAR-Tat -0.13 and CDC25B CDK2 inh -2.4.
CCN1CCN(C(=O)Cn2cc3c(n2)-c2c(oc(C(=O)N4CCCC4)c2C)CC3)CC1 was read as HIV TAR-Tat 1.4.
For COC(=O)c1ccc(C2CC(=O)NC3=C2C(=O)CC(C)(C)C3)cc1 (stereo not drawn) the results were HIV TAR-Tat 2.7 and CDC25B CDK2 inh -0.45.
Screening CC(C)(C)c1ccc(S(=O)(=O)c2cc3ccccc3oc2=O)cc1 returned CDC25B CDK2 inh -0.29.
Screening COC(=O)c1c(C)oc(C)c1S(=O)(=O)NC(C)(C)C returned CDC25B CDK2 inh -1.3.
For CC(C)CN(CC(C)C)S(=O)(=O)c1ccc2c(c1)CCCC(=O)N2 the results were HIV TAR-Tat 1.6.
CC(CC(=O)Nc1ccc2c(c1)OCO2)S(=O)(=O)c1ccc2c(c1)CCN2C(=O)C1CC1 (stereo not drawn) was read as HIV TAR-Tat -0.17.
CN(Cc1ccccc1Cl)C(=O)c1cnccc1C(F)(F)F was read as CDC25B CDK2 inh -0.97.
BrC1(Br)C2COCOCC21 (stereo not drawn) was read as CDC25B CDK2 inh -1.2.
Screening Nc1c(-c2nc(-c3ccc(Cl)cc3)no2)nnn1-c1ccccc1F returned HIV TAR-Tat 0.47.
For COc1cc2c(cc1NC(=O)c1ccc(I)cc1)oc1ccccc12 the results were CDC25B CDK2 inh -6.7.
`Cn1c(=O)c2c(nc(N3CCOCC3)n2Cc2ccccc2F)n(C)c1=O` gave CDC25B CDK2 inh -1.5.
`Cn1c(NCc2cn(-c3ccccc3)nc2-c2cccs2)nc2ccccc21` gave HIV TAR-Tat 2.4 and CDC25B CDK2 inh -0.63.
`COc1ccc(N2C(=O)CC(N3CCN(C4CC(=O)N(c5ccc(OC)cc5)C4=O)CC3)C2=O)cc1` (stereo not drawn) gave HIV TAR-Tat 0.08 and CDC25B CDK2 inh -0.47.
COC(=O)[C@]1(C)CC[C@]2(C)CC[C@]3(C)C4=CCc5c(cc(OC(C)=O)c(OC(C)=O)c5C)[C@]4(C)CC[C@@]3(C)C2C1 (stereo partly drawn) was read as HIV TAR-Tat 1.8.
Screening COc1ccc(C2CC(=O)C=C(NC3Cc4ccccc4C3)C2)cc1 (stereo not drawn) returned HIV TAR-Tat 1 and CDC25B CDK2 inh -0.43.
For COc1cc(NS(=O)(=O)c2ccc3[nH]c4c(c3c2)CCCCCC4)cc(OC)c1 the results were HIV TAR-Tat 0.02.
For CCOC(=O)c1ccc2c(c1)[C@@H]1C=CC[C@@H]1[C@H](c1ccc(C(=O)O)cc1)N2 the results were HIV TAR-Tat 8* and CDC25B CDK2 inh 1.6.
`ON/C=N/c1nnc(Cc2ccc(F)cc2)s1` gave CDC25B CDK2 inh -0.29.
Screening CSc1nc(N)c2ccccc2n1 returned CDC25B CDK2 inh -0.63.
CCC(Sc1nncn2c1cc1occc12)C(=O)Nc1ccc(OC)c(Cl)c1 (stereo not drawn) was read as HIV TAR-Tat -8.8.
COc1ccc(OC)c(NS(=O)(=O)c2ccc3c(c2)S(=O)(=O)N=CN3)c1 was read as HIV TAR-Tat 0.62.
C=CCN1C(=O)/C(=C/c2ccc(OC(=O)c3ccccc3I)c(OCC)c2)SC1=S was read as CDC25B CDK2 inh -2.6.
`Cc1c(C)n(-c2cc(F)cc(F)c2)c2ncnc(Cl)c12` gave HIV TAR-Tat 0.28 and CDC25B CDK2 inh -0.47.
For COc1ccc(NS(=O)(=O)c2cc(-c3cnc(C4CC4)o3)ccc2C)cc1 the results were HIV TAR-Tat 0.9.
Screening CC1(C)C(=O)N(CC(=O)Nc2ccc(Br)cc2F)c2ccccc21 returned HIV TAR-Tat 0.91.
For CN(C(=O)c1cc(-c2ccc3c(c2)OCCO3)on1)c1ccccc1 the results were HIV TAR-Tat 1.7 and CDC25B CDK2 inh 1.3.
COc1cc2nc(NCCN3CCOCC3)n3nc(-c4ccccc4)nc3c2cc1OC was read as HIV TAR-Tat 1.4 and CDC25B CDK2 inh -2.1.
Screening N#C/C(=C/Nc1cccc(C(F)(F)F)c1)c1nc(-c2ccc3c(c2)OCO3)cs1 returned CDC25B CDK2 inh -1.9.
For CCC(Sc1nc2cc3c(cc2c(=O)n1Cc1ccc2c(c1)OCO2)OCO3)C(=O)N1CCCC1 (stereo not drawn) the results were CDC25B CDK2 inh -0.01.
For CC1CN(CC(=O)N2CCc3ccccc32)c2ccccc2S1 (stereo not drawn) the results were HIV TAR-Tat 0.1.
`CC1(C)CC[C@@]2(C(=O)O)C(C1)C1=CCC3[C@@]4(C)CC[C@H](O)C(C)(C)C4CC[C@@]3(C)[C@]1(C)C[C@@H]2O` (stereo partly drawn) gave HIV TAR-Tat -0.01.
For CN(C(=O)CSc1nnc(-c2ccncc2)o1)c1ccccc1 the results were HIV TAR-Tat 0.47 and CDC25B CDK2 inh -1.5.
`COc1ccc(-c2onc(C)c2C)cc1S(=O)(=O)N(CCN(C)C)Cc1ccccc1` gave HIV TAR-Tat 0.27.
For CCOC(=O)c1cnc(N2CCCC2)nc1C1CCNCC1 the results were HIV TAR-Tat -0.72 and CDC25B CDK2 inh 5.9.
O=C(CSc1nc(-c2cccc(Cl)c2)nc2cc(=O)[nH]n12)N1CCc2ccccc2C1 was read as HIV TAR-Tat 0.66.
Screening CC(Nc1ccccc1)C1CC1 (stereo not drawn) returned CDC25B CDK2 inh -0.87.
Cc1nc2sccn2c(=O)c1S(=O)(=O)Nc1ccccc1Cl was read as HIV TAR-Tat 0.33.
Screening COC(=O)C1=NOC2C(=O)N(c3ccccc3)C(=O)C12 (stereo not drawn) returned HIV TAR-Tat -0.09 and CDC25B CDK2 inh -2.1.
OC(c1ccc(Br)cc1)C1CC1 (stereo not drawn) was read as CDC25B CDK2 inh -0.54.
O=C(CCc1nc(-c2ccco2)no1)Nc1ccccc1F was read as HIV TAR-Tat 1.1 and CDC25B CDK2 inh -0.38.
`Cc1ccc(C)c(CN2C(=O)Nc3ccccc3S2(=O)=O)c1` gave HIV TAR-Tat 1.1.
For CC1=CC(C)C2COC(c3ccccc3O)C1C2 (stereo not drawn) the results were HIV TAR-Tat -0.03 and CDC25B CDK2 inh -0.53.
CCCCNC(=O)Cn1c(C)nc2sc(C(=O)OCC)c(C)c2c1=O was read as CDC25B CDK2 inh -0.63.
CCn1c[n+](CC(O)COCc2ccccc2)c2ccccc21 (stereo not drawn) was read as HIV TAR-Tat 1.1 and CDC25B CDK2 inh -2.9.
Screening O=C(Nc1ccccc1Br)NC(c1ccccc1)c1nnc(-c2ccccc2)o1 (stereo not drawn) returned HIV TAR-Tat 0.46.
For CC(C)CN(CC(C)C)C(=O)Cn1c(CN2CCOCC2)nc2ccccc21 the results were HIV TAR-Tat 1.2 and CDC25B CDK2 inh 1.
For COc1ccc(NC(=O)Nc2sc(=S)n(C)c2C)cc1 the results were HIV TAR-Tat 0.1 and CDC25B CDK2 inh -0.6.
